Six1-Eya2 inh: qHTS Assay for Inhibitors of the Six1/Eya2 Interaction. Homeobox protein SIX1 (Homo sapiens) + Protein phosphatase EYA2 (Homo sapiens), …. AlphaScreen GST-Six1/His-Eya2 binding, biochemical; stronger effect = lower value; control for the full effect not named in the record. activity change, % (no concentration beside the values). 360,000 tested, 0.56% active; in the data active = activity change below about -65%; inconclusive = about -30% to -65%; inactive = above about -30%; note: % is set by controls: 0 for no effect and ±100 for the full control effect; compound concentration not given in the record
Target sequence (O00167 whole entry, looked up): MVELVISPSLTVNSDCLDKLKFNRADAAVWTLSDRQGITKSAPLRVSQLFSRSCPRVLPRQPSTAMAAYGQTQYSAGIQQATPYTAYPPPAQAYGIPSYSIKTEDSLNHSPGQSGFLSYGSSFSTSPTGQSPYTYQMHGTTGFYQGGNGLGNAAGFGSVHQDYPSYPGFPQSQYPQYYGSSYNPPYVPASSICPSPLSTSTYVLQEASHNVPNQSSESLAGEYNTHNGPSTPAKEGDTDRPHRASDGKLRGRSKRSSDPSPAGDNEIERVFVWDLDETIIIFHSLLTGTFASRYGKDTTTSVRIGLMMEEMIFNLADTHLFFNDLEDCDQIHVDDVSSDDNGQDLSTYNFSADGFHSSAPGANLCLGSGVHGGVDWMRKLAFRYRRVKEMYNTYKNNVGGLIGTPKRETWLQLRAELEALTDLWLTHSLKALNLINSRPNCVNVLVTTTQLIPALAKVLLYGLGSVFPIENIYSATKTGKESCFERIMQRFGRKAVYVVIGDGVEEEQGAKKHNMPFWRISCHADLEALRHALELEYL
Target sequence (Q15475 whole entry, looked up): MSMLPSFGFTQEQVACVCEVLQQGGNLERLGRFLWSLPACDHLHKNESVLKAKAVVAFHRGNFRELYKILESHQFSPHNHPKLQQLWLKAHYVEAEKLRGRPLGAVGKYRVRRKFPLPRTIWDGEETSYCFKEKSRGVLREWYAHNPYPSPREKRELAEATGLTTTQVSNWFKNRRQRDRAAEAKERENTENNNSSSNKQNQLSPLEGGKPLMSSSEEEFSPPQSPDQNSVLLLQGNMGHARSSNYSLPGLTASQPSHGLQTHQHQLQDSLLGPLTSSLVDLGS
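Six1/Eya2 binding was read as AlphaScreen signal after compounds were pinned into GST-Six1 plus His-tagged Eya2 (5X stock 250/500 nM) in pH 8.0 Tris/NaCl/TCEP buffer, beads added, then incubated 1 h, 37 C, dark.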
TRPML1 agonist: qHTS for Agonists of the Human Mucolipin Transient Receptor Potential 1 (TRPML1); activation, % (no concentration beside the values); 410,000 tested, 0.12% active; TRPML1-expressing cells, Ca2+ dye fluorescence, FDSS; host cell line not named in the record; reference of the full effect not given here; Mucolipin-1 (Homo sapiens), Q9GZU1; in the data active = activation above about 50%; inconclusive = about 30% to 50%; inactive = below about 30%; note: 0% is about no effect; the text of the record puts the active cut at 80%
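TRPML1-DL cells, Tet-induced overnight (~16 h, 37 degrees C), loaded 45-90 min at room temperature with Ca8 no-wash calcium dye plus quencher. FDSS fluorescence: 10 s baseline, compound pin-transfer, 110 s agonist read, then EC80 54-4 (4uM final) and 110 s antagonist read.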
TRPML1 inh: qHTS for Inhibitors of the Human Mucolipin Transient Receptor Potential 1 (TRPML1). Mucolipin-1 (Homo sapiens), Q9GZU1. TRPML1-inducible cells, Ca2+ dye fluorescence, FDSS; stronger effect = lower value; inhibition of EC80 agonist-evoked calcium signal. activity change, negative = inhibition, % (no concentration beside the values). 390,000 tested, 0.02% active; in the data active means activity change below about -50%; inconclusive means about -30% to -50%; inactive means above about -30%;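 note: stimulus is agonist 54-4 at its EC80 concentration; % is set by controls: 0 for no effect and ±100 for the full control effect; compound concentration not given in the record; the text of the record puts the active cut at -80%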
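Calcium fluorescence in TRPML1-DL cells induced overnight with Tet: a 110 s read after compound pin addition, then a 110 s antagonist read after challenge with 54-4 at 4 uM final (EC80).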
CtBP-E1A blk: qHTS Assay for Inhibitors of the CtBP/E1A Interaction | CtBP / adenovirus E1A interaction (AlphaScreen) | AlphaScreen GST-E1A/His-CtBP binding, 1536-well; stronger effect = lower value; control for the full effect not named in the record | activity change, % (test concentration not listed) | 340,000 tested, 0.49% active | AID 651724, 2012; in the data active means activity change below about -65%; inconclusive means about -30% to -65%; inactive means above about -30%; note: % is set by controls: 0 for no effect and ±100 for the full control effect; compound concentration not given in the record
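Steps: dispense buffer (Tris pH 8.0, NaCl 300 mM, TCEP 1 mM, BSA, Tween 20); add 5X protein mix (GST-E1A, His-CtBP, 125 nM each); pin 23 nL compound; 2 h at 37 °C, dark; add 5X beads (50 ug/mL); 1 h; read.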
D2 agonist: Beta-Arrestin HTS for Positive Allosteric Modulators of the Human D2 Dopamine Receptor: Agonists; D(2) dopamine receptor (Homo sapiens), P14416; DiscoveRx PathHunter D2 beta-arrestin, luminescence, 90 min; 100% = 57 uM dopamine signal; activation, % (test concentration not listed); 360,000 tested, 0.084% active; in the data active = activation above about 40%; inconclusive = about 15% to 40%; inactive = below about 15%; note: compound concentration not given in the record; the text of the record calls up to 30% inactive
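Agonist mode: compounds alone added to overnight-plated D2 PathHunter cells for 90 min at 37 C, with 57 uM final dopamine (EC100) defining full response. Beta-arrestin recruitment detected by chemiluminescent reagent, read after 1 h at ambient temperature.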
PINK1 expr mod: A Quantitative High throughput Screen to Identify Chemical Modulators of PINK1 Expression | 410,000 tested, 0.2% active | Potency, µM (top dose mostly 76.6 µM), inactives show at the top dose activation (PINK1 increase), actives largely listed as activators | PINK1 immunofluorescence, high-content cytometry, 24 h; active = well fitted activation curve with a large enough effect; inconclusive = small, poorly fitted or top-dose-only effect; inactive = flat fitted curve, though single readings scatter; cell line not stated here;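 note: potency is the fitted concentration of half-maximal effect; % of control where 0% means no effect; nearly all actives have a fitted effect of over 65% in size; a mitochondrial uncoupler was the plate control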
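PINK1 protein level read as immunofluorescence by microplate cytometer in a fixed, stained stable cell line after 24 h exposure to five compound concentrations, with CCCP as control.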
Active calls of the source: *; u = inconclusive; x = no result given; & = joins results of further samples; [ ] = another dose, or the depositor's remark.

SMILES	Six1-Eya2 inh	TRPML1 agonist	TRPML1 inh	CtBP-E1A blk	D2 agonist	PINK1 expr mod
CC/C(=N\NC(=O)c1ccc(-c2ccccc2)cc1)C12CC3CC(CC(C3)C1)C2	-2	-0.6	-7	-16	-0.6	-1.4%
Nc1cc(Cl)cc2c1-c1ccc(Cl)cc1C2	-11	-0.7	-5	-8	3.1	4.3%
COCCN=c1scc(-c2cc(OC)c(OC)c(OC)c2)n1/N=C/c1c(C)[nH]c2ccccc12	u	0.6	-8	u	1.3	0.4%
O=c1oc(Nc2cccc(F)c2)nc2ccccc12	-2	0.1	-12	3	-2.3	0.1%
CCOC(=O)c1ccc(NS(=O)(=O)c2ccc3c(c2)oc(=O)n3C)cc1	-6	0.7	8	4	0.9	0.9%
CCOc1ccccc1NC(=O)CSc1cn[nH]n1	5	0.9	16	4	-1.1	-2.1%
CCn1cc(CNC(=O)C2CCC(=O)N(C3CCCCCC3)C2)cn1 (centres undefined)	-6	0.9	-8	6	-1.2	0.1%
Cc1ccc(S(=O)(=O)N2C[C@H]3C(=O)C[C@@H](c4cccc5ccccc45)N(S(=O)(=O)c4ccc(C)cc4)[C@H]3C[C@H]2c2ccc(Cl)cc2)cc1	0	1.2	-13	-13	-7.3	2.4%
Cc1ccc(-n2nc(C)c3c(C(=O)Nc4ccc(Br)c(C)c4)cc(C)nc32)cc1	x	-0.4	-7	x	x	0.5%
CCn1nccc1C(=O)Nc1cc(Cl)ccc1Cl	10	4.2	5	12	-4.1	4.2%
COc1ccc(Cl)cc1NS(=O)(=O)c1cccc(C(=O)NCC(C)(C)N2CCOCC2)c1	4	-0.7	14	-5	-1.1	-1.2%
CCCN(CCC)C(=O)C[n+]1cccc(/C=N/O)c1	1	-0.4	18	6	-2.0	-1.0%
O=C(CSc1ccccc1)NC1CC1	3	-0.5	-7	-5	-1.8	1.0%
O=C(COc1ccc2ccc(=O)oc2c1)NCC(O)c1ccccc1 (centres undefined)	4	0.7	1	3	3.6	0.4%
O=C(O)COc1ccc(C(NC(=O)c2c(F)cccc2F)NC(=O)c2c(F)cccc2F)cc1	3	0.9	-1	x	-1.7	1.0%
CC(C)Oc1ccc(CNC(=O)c2cc(S(=O)(=O)N3CCOCC3)cn2C)cc1	1	-0.7	-18	1	4.9	-1.7%
CS(=O)(=O)N1CCCC(C(=O)NCc2ccco2)C1 (centres undefined)	1	4.0	20	-10	-1.3	2.1%[38.3 µM]
COc1ccc(-c2cnnn2-c2ccc(N)cc2)cc1OC	1	1.9	16	1	0.7	5.1%[38.3 µM]
CCN(c1ccc(C)c(C)c1)S(=O)(=O)c1ccc2c(c1)CCN2C(=O)CCC(=O)O	1	5.1	-12	4	-2.5	u
COc1ccccc1C(=O)NCC(=O)Nc1ccc2c(c1)OCO2	-1	0.5	-8	0	-4.0	0.6%
COc1ccc(CN2CSC(=S)N(Cc3ccccc3)C2)cc1	10	0.0	0	x	-4.4	-0.1%
Cn1c(C(=O)N[C@@H](C(=O)O)c2ccccc2)cc2cc(F)ccc21	6	0.7	17	2	-1.2	3.3%
COc1ccc(Br)cc1CN(C)CC(=O)Nc1cccc(S(N)(=O)=O)c1	2	-1.0	0	x	-2.6	0.8%
O=C(Cc1c(O)c2ccccc2[nH]c1=O)NC1CCCCCCC1	0	0.0	-13	3	-1.0	u
O=C(COC(=O)/C=C/c1ccccc1Cl)Nc1cccnc1Cl	5	4.4	3	-18	1.4	0.1%
COc1ccc(N2CCN(c3oc(-c4ccccc4C)nc3S(=O)(=O)c3ccccc3)CC2)cc1	x	-0.5	32	x	x	2.1%
Nn1c(SCc2ccccc2)nnc1-c1ccccn1	2	-0.3	-11	2	1.1	x
COc1ccc(C)cc1S(=O)(=O)Nc1cccc(-c2ccc(N3CCC(C)CC3)nn2)c1	x	-0.8	27	x	x	0.2%
COc1ccccc1NC(=S)N1CCc2cc(OC)c(OC)cc2C1	4	1.4	-22	2	0.4	-0.1%
COc1ccc(CCC(C)NCCc2ccc(Cl)cc2Cl)cc1 (centres undefined)	-4	-0.1	4	x	-4.6	-2.2%
COc1ccc(/C=C/C(=O)c2cc(Br)ccc(=O)c2O)cc1	-16	1.0	-23	0	-7.1	-2.6%
CCCC1=Nc2cc(C(=O)NCCN3CCCC3)ccc2Sc2ccccc21	-5	0.2	-1	-12	1.7	-0.4%
Cc1ccc(NC(=O)CSc2nc(=O)n(Cc3cccnc3)c3c2CCC3)cc1F	x	1.5	11	x	x	-1.7%
Cc1cc2c(ncn2C)c(NS(=O)(=O)c2ccccc2Cl)c1C	5	-0.4	-6	3	-3.7	9.7%
COc1ccc(CNC(=O)CCCn2nc(C)c3c(C)n(-c4ccc(C)cc4)nc3c2=O)cc1OC	-4	-1.4&1.8	20&50	-14	-2.9	0.5%&-0.4%
O=S(=O)(c1ccc(Cl)cc1)N1CCC(N2CCOCC2)CC1	26	-0.7	12	39	-2.3	20%[38.3 µM]
CSCCC(=O)N1CCC(n2nccc2NC(=O)CCc2ccccc2)CC1	2	-0.3	5	-2	0.7	-1.9%
CC1Cc2nc(SCC(=O)NC3CCCCC3)n(C)c(=O)c2S1 (centres undefined)	2	1.3	-3	10	2.2	x
CC(C)(C)NC(=O)c1oc2ccccc2c1NC(=O)c1ccc(F)cc1	x	-0.5	-7	x	x	-0.5%
Cc1ccc(-c2noc(CCCC(=O)N3CCOCC3)n2)cc1	3	-0.2	2	-2	0.5	0.9%
O=C(COC(=O)C1=COCCO1)Nc1ccc([N+](=O)[O-])cc1C(F)(F)F	3	0.2	-6	0	-1.9	-1.6%
COc1ccc(Cl)cc1NC(=S)N1CCN(C(=O)C2CCCO2)CC1 (centres undefined)	0	1.6	18	x	1.0	-0.9%
CCOc1ccc(-n2c(=O)c3c(C)c(C(=O)N(C)C)sc3n(Cc3cc(C)ccc3C)c2=O)cc1	x	1.7	-20	x	x	-0.6%
CCOc1c(OC(C)=O)ccc(/C=C2\N=C(SCC)SC2=O)c1[N+](=O)[O-]	0	0.3	4	4	-0.3	0.7%
CCOC(=O)C1=CN(CC2CCCCC2)CCC1=O	0	0.5	-2	4	1.4	-0.7%
N=C(N)SCc1nc2ccccc2c(=O)n1-c1ccccc1Cl	5	-0.6	1	5	-2.5	0.2%
CCN(Cc1ccc2c(c1)OCO2)C(=O)CSc1ncnc2sccc12	-2	0.1	-3	-8	-2.0	-0.6%
Cc1cc(C)cc(NCc2nnc3n2CCCCC3)c1	x	0.8	0	x	x	u
S=C(NCc1ccco1)NCC1CCCO1 (centres undefined)	7	0.2	1	0	-1.3	-0.4%
Cc1nc2ncnn2c(C)c1Cc1c(Cl)cccc1Cl	3	-0.2	0	2	1.4	-0.7%
Cc1cc(=O)oc2cc(OC(C)C(=O)N3CCOCC3)c(Cl)cc12 (centres undefined)	-2	0.0	20	4	-1.9	-1.4%
O=[N+]([O-])c1cc(S(=O)(=O)N2CCCC2)ccc1NCCc1ccccc1	-1	-0.7	12	16	2.7	16%
CN1C(C(=O)NCc2ccc(OC(F)(F)F)cc2)CC2Cn3c(nc4ccccc43)C21 (centres undefined)	2	-1.1	-3	6	0.3	0.8%
Cc1ccc(-c2ccc(OCC(=O)N3CCOCC3)cc2)cc1	3	0.5	55	0	3.1	1.0%
CCC(=O)Nc1cccc(NC(=O)c2cccc([N+](=O)[O-])c2C)c1	-9	-0.5	4	-9	-3.3	0.5%
COc1ccc2nc(SCC(N)=O)cc(C)c2c1	-1	-1.5	-23	-1	-0.8	0.0%
COC(=O)C1C2C=CC3(CN(c4cccc(C)c4)C(=O)C13)O2 (centres undefined)	-5	-1.2	-1	-2	2.4	2.2%
O=C(NCCc1ccccc1)c1ccc(-c2cccnc2)c2ccoc12	-21	0.3	5	u	-1.5	-1.4%
O=C(Cc1ccccc1)n1nc(-c2ccco2)nc1SCc1ccccc1	2	0.3	-1	6	-3.0	0.4%
O=C(N/N=C/c1cn[nH]c1-c1ccc(Cl)cc1)c1ccc([N+](=O)[O-])cc1	-15	2.3	5	2	7.6	0.5%

Structures above that have bromine, in the order listed:
SMILES	Six1-Eya2 inh	TRPML1 agonist	TRPML1 inh	CtBP-E1A blk	D2 agonist	PINK1 expr mod
Cc1ccc(-n2nc(C)c3c(C(=O)Nc4ccc(Br)c(C)c4)cc(C)nc32)cc1	x	-0.4	-7	x	x	0.5%
COc1ccc(Br)cc1CN(C)CC(=O)Nc1cccc(S(N)(=O)=O)c1	2	-1.0	0	x	-2.6	0.8%
COc1ccc(/C=C/C(=O)c2cc(Br)ccc(=O)c2O)cc1	-16	1.0	-23	0	-7.1	-2.6%

Compound profiles (already shown). Order of values: Six1-Eya2 inh, TRPML1 agonist, TRPML1 inh, CtBP-E1A blk, D2 agonist, PINK1 expr mod
Entry for O=C(Cc1ccccc1)n1nc(-c2ccco2)nc1SCc1ccccc1 → 2, 0.3, -1, 6, -3.0, 0.4%
Entry for O=c1oc(Nc2cccc(F)c2)nc2ccccc12 → -2, 0.1, -12, 3, -2.3, 0.1%
Entry for N=C(N)SCc1nc2ccccc2c(=O)n1-c1ccccc1Cl → 5, -0.6, 1, 5, -2.5, 0.2%

Remaining list, next part.
SMILES	Six1-Eya2 inh	TRPML1 agonist	TRPML1 inh	CtBP-E1A blk	D2 agonist	PINK1 expr mod
N#CCCN(Cc1ccccc1)S(=O)(=O)c1cccs1	4	1.7	2	x	-1.1	17%
CCCc1cc(=O)oc2cc(C)cc(OCC(=O)O)c12	-18	-0.9	10	-19	-1.5	0.5%
COCCn1c(SCC(=O)NCc2ccc3c(c2)OCO3)nnc1C(C)C	-2	-0.8	8	18	-1.6	1.0%
CCOC(=O)C(C)n1cnc2c(oc3ccccc32)c1=O (centres undefined)	-5	-0.1	2	3	-4.7	-2.4%
CCc1ccc(C(=O)Nc2cc(C)ccc2F)s1	4	-1.0	5	9	-5.5	1.7%
CC(C)(C)C1c2[nH]c3ccccc3c2CCN1Cc1cccc(OCCO)c1 (centres undefined)	-9	0.7	15	-1	-0.1	0.3%

Reprinted from the listing, 3 compounds:
SMILES	Six1-Eya2 inh	TRPML1 agonist	TRPML1 inh	CtBP-E1A blk	D2 agonist	PINK1 expr mod
N#CCCN(Cc1ccccc1)S(=O)(=O)c1cccs1	4	1.7	2	x	-1.1	17%
CCCc1cc(=O)oc2cc(C)cc(OCC(=O)O)c12	-18	-0.9	10	-19	-1.5	0.5%
COCCn1c(SCC(=O)NCc2ccc3c(c2)OCO3)nnc1C(C)C	-2	-0.8	8	18	-1.6	1.0%

Compound activity as filed in PubChem BioAssay.
